# CtBP-E1A blk: blocks the CtBP interaction with E1A | 340,000 tested, 0.49% active | activity change, % (no concentration beside the values) | AlphaScreen GST-E1A/His-CtBP binding, 1536-well; stronger effect = lower value; control for the full effect not named in the record | AID 651724; in the data active means activity change below about -65%; inconclusive means about -30% to -65%; inactive means above about -30%; note: % is set by controls: 0 for no effect and ±100 for the full control effect; compound concentration not given in the record
#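 Homogeneous bead-based format: GST-tagged E1A captured on glutathione donor beads, His-tagged CtBP on nickel acceptor beads; compounds precede bead addition by 2 h at 37 °C.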
# D2 potentiator: human D2 receptor positive allosteric modulation; DiscoveRx D2 beta-arrestin cells, luminescence, 90 min; 100% = 57 uM dopamine signal; AID 624464; potentiation, % (no concentration beside the values); 360,000 tested, 0.23% active; P14416; active = potentiation of 50% or more; inconclusive = 30% to 50%; inactive = 30% or less;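 note: compound concentration not given in the record; tested on top of an EC20 dose of dopamine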
#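 PathHunter D2 cells, attached overnight at 37 deg C, received compound in DMSO plus dopamine at EC20 (50 nM final) for 90 min at 37 deg C. Beta-arrestin recruitment was read as luminescence after 1 h with detection reagent at ambient temperature.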
# Six1-Eya2 blk: Six1/Eya2 interaction inhibition; activity change, % (test concentration not listed); 360,000 tested, 0.56% active; AlphaScreen GST-Six1/His-Eya2 binding, biochemical; stronger effect = lower value; control for the full effect not named in the record; in the data active = activity change below about -65%; inconclusive = about -30% to -65%; inactive = above about -30%; note: % is set by controls: 0 for no effect and ±100 for the full control effect; compound concentration not given in the record
#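 Compounds are tested against tagged Six1 and Eya2 proteins bridged by glutathione donor and nickel acceptor beads; after a one-hour incubation at 37 °C without light, AlphaScreen emission is recorded.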
# TRPV1 potentiator: enhances activation of the human vanilloid receptor TRPV1 | Q8NER1 | TRPV1-expressing cells, Fluo-8 calcium influx, capsaicin EC20 potentiation; host cell line not named in the record; control for the full effect not named in the record | potentiation, % at 8.33 µM | 320,000 tested, 0.02% active | AID 540277; active means potentiation above 80%; inconclusive means 30% to 80%; inactive means below 30%; note: 0% is about no effect
# Target sequence (Q8NER1 whole entry, looked up): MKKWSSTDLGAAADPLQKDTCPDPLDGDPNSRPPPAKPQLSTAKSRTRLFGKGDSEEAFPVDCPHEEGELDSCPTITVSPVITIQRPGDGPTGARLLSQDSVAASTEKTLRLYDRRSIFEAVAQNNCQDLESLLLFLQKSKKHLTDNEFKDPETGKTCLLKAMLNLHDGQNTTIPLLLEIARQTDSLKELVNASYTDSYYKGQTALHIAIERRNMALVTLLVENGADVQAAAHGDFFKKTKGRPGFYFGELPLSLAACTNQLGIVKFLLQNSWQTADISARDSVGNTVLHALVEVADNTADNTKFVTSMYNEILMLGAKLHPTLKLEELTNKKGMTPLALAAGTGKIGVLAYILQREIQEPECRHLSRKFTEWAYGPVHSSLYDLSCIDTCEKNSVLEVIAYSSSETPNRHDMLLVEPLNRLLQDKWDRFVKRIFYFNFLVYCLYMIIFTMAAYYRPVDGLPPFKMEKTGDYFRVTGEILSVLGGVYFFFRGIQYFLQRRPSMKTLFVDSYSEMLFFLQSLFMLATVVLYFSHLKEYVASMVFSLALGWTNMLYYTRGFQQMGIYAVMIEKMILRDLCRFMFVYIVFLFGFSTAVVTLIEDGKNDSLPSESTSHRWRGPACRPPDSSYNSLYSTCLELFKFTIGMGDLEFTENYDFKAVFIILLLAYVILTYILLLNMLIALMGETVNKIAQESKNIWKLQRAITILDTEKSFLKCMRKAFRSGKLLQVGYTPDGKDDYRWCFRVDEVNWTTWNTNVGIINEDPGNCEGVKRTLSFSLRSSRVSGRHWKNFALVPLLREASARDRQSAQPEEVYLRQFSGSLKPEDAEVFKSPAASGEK
#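 TRPV1-expressing cells were cultured overnight at 35.5C and loaded with Fluo-8 calcium dye for 40 to 90 min at room temperature. After a 10 s baseline, compound was added and calcium influx was read kinetically for 3 min (ex 480/em 520 nm).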
# PINK1 expr mod: PINK1 expression modulation; PINK1 immunofluorescence, high-content cytometry, 24 h; AID 624263; 410,000 tested, 0.2% active; Potency, µM (titrated, usually from 76.6 µM), for inactives: top-dose activation (PINK1 increase), actives largely listed as activators; active = well fitted activation curve with a large enough effect; inconclusive = small, poorly fitted or top-dose-only effect; inactive = flat fitted curve, though single readings scatter; cell line not stated here;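 note: potency is the fitted concentration of half-maximal effect; % of control where 0% means no effect; nearly all actives have a fitted effect of over 65% in size; a mitochondrial uncoupler was the plate control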
#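 Measures PINK1 amount and localization on or inside mitochondria by immunofluorescence. Stable cells get compounds at 5 concentrations for 24 hours before fixation and staining; CCCP controls included.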
# Sfp PPTase inh: blocks B. subtilis Sfp PPTase activity; Biochemical Sfp PPTase activity, qHTS; Potency, µM, for inactives: max response, negative = inhibition, actives largely listed as inhibitors; 310,000 tested, 3.5% active; Q9F4F7; active = well fitted inhibition curve with a large enough effect; inconclusive = small, poorly fitted or top-dose-only effect, or another doubt; inactive = no such curve, though single readings can be large or run the other way;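 note: the enzyme is Sfp with the accession as filed and its product quenches rhodamine fluorescence; potency is the fitted concentration of half-maximal effect; 0% = enzyme reaction without inhibitor and -100% = no enzyme wells; top concentration of the series not given in the record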
#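 Compounds were incubated with enzyme (final 15 nM) for 15 min at room temperature before substrate addition started the reaction. Fluorescence at 525 nm excitation, 598 nm emission was recorded immediately and after 30 minutes.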
# D2 agonist: activates the human D2 dopamine receptor | DiscoveRx PathHunter D2 beta-arrestin, luminescence, 90 min; 100% = 57 uM dopamine signal | activation, % (no concentration beside the values) | AID 624465 | 360,000 tested, 0.084% active; in the data active = activation above about 40%; inconclusive = about 15% to 40%; inactive = below about 15%; note: compound concentration not given in the record; the text of the record calls up to 30% inactive
#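 Agonist mode: compounds alone added to overnight-plated D2 PathHunter cells for 90 min at 37 C, with 57 uM final dopamine (EC100) defining full response. Beta-arrestin recruitment detected by chemiluminescent reagent, read after 1 h at ambient temperature.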
# Numbers without * were called inactive; ? = inconclusive; · = no result given; [ ] = remark or other dose.
SMILES,CtBP-E1A blk,D2 potentiator,Six1-Eya2 blk,TRPV1 potentiator,PINK1 expr mod,Sfp PPTase inh,D2 agonist
COc1cc(CN2CCCC(N3CCc4ccccc4C3)C2)c(Cl)cc1O (stereo not given),0,-25,-4,3,0.0%,-7%,2.7
CC(=O)N1N=C(c2ccccc2O)CC1c1cccs1 (stereo not given),-13,0,-13,4,-0.1%,2%,-2.5
O=C(CN(Cc1ccccc1)S(=O)(=O)c1ccc2c(c1)OCCO2)Nc1ccc2c(c1)OCCO2,50,2,1,9,·,-9%,-1.7
O=C(CC1CC1)Nc1ccc2c(c1)[C@@H]1C[C@H](CC(=O)NC3CCCC3)O[C@@H](CO)[C@@H]1O2,0,-3,1,·,2.8%,·,-7.8
CCOC(=O)C1CCN(C(=O)CNC(=O)c2nn(-c3ccc(OC)cc3)c(=O)c3ccccc23)CC1,0,1,-3,-1,4.2%,-2%,4.9
Cc1ccccc1OCC(=O)NCC(=O)N/N=C/c1ccc(Br)o1,3,-13,-1,7,8.2%,17%,-4.8
CCCC(=O)Nc1ccc2c(c1)nc(CN1CCCCC1)n2C,0,-17,1,14,-1.0%,0%,-3.1
Cc1cccn2c(=O)c3cc(C(=O)NC4CCCCCC4)sc3nc12,-16,-1,0,-1,10%,-1%,8.1
COc1ccc(CCN2C(=O)CS/C2=N\NC(=O)c2cccs2)cc1OC,·,-1,0,12,2.2%,12%,-1.0
CCCNC(=O)c1cc(C2CCCN(S(=O)(=O)c3cccs3)C2)on1 (stereo not given),-7,-2,8,·,1.4%,·,8.5
CC(NC(=O)C1CCC1)c1ccc(Br)cc1 (stereo not given),12,14,0,1,-0.1%,-8%,3.1
O=C(Nc1ccc(C(=O)N2CCCC2)cc1)C1CCCC1,4,·,8,·,-0.6%,·,-0.8
CCOC(=O)C1(CCc2ccccc2)CCN(C(=O)CN2C(=O)CSC2=O)CC1,-8,-3,1,7,0.8%,4%,1.4
Cc1cc(SCC(=O)Nc2c(C)n(C)n(-c3ccccc3)c2=O)nc2ccccc12,1,1,0,3,-1.4%,-1%,-7.2
O=C(O)c1c(C(=O)O)c(-c2ccc(Br)cc2)n2c1CSC2,·,0,-7,11,3.3%,0%,-1.5
CCCC(=O)Nc1ccc(Oc2ccc(NC(=O)CCC)cc2)cc1,0,12,0,-12,0.7%,11%,-0.1
O=c1c2cn(Cc3ccc(F)cc3)c3ccc(F)cc3c-2nn1Cc1ccc(F)cc1,8,0,0,-7,-1.2%,10%,1.7
Cc1ccccc1Oc1nc2c(C)cccn2c(=O)c1/C=C(\C#N)C(=O)Nc1c(C)n(C)n(-c2ccccc2)c1=O,8,-3,1,27,0.9%,?,0.2
COc1ccc(C2COC(=O)C2=N)c(NC(=O)c2ccc(Cl)cc2)c1 (stereo not given),2,2,3,21,0.9%,-6%,0.1
COc1cccc(CNC(=O)CCC2CCCN(C(=O)c3ccc(OC)o3)C2)c1 (stereo not given),9,-7,0,12,-0.7%,50µM*,0.0
O=C(Nc1ccc(F)cc1)c1nsc(Cl)c1Cl,3,-7,13,1,0.2%,3%,-0.3
COC(=O)c1ccc(NC(=O)CSc2nnnn2C2CCCCC2)cc1,-1,-9,0,-4,4.5%,-19%,7.4
O=C(O)CCN1/C(=C/C=Nc2ccccc2)Oc2ccccc21,14,-8,5,6,0.4%,-14%,0.7
CCCN(CC1CCCO1)C(=O)CCc1nnc(-c2cc(C)on2)o1 (stereo not given),2,-8,0,16,2.0%,13%,-4.1
COc1ccc(NC(=O)c2ccc(NC(=O)CSc3nc(N)cc(=O)[nH]3)cc2)cc1,·,-3,2,24,-0.1%,·,-3.3

# Additional entries
SMILES,CtBP-E1A blk,D2 potentiator,Six1-Eya2 blk,TRPV1 potentiator,PINK1 expr mod,Sfp PPTase inh,D2 agonist
CCc1ccccc1OCC(=O)Nc1cc(S(=O)(=O)N(CC)CC)ccc1N1CCOCC1,3,0,-2,-1,6.1%,·,-3.6
O=c1cc(CSc2nc3ccccc3c(=O)[nH]2)c2ccc(O)cc2o1,-18,4,-2,10,-0.1%,-6%,12
CCc1ccc2[nH]c(=O)c(CN(Cc3ccc4c(c3)OCO4)Cc3nnnn3C3CCCC3)cc2c1,-14,-15,-13,7,-2.0%[38.3 µM],-9%,-2.6
Cc1nn(CC(=O)Nc2ccncc2)c(C)c1[N+](=O)[O-],14,-7,-1,-1,0.1%,11%,-7.6
CC(C)c1ccc(NC(=O)NN2CCOCC2)cc1,·,-14,2,-28,-2.4%,-6%,0.5
C=CCNc1nc(NCCN2CCOCC2)nc(N2CCOCC2)n1,7,-16,2,29,0.0%,23%,-0.4
O=C(Nc1ccccc1)C1CCCN1C(=O)NCc1ccccc1 (stereo not given),12,-6,13,-11,2.2%,-8%,-3.8
Cc1ccc(C)c(N2CCN(S(=O)(=O)c3cc4c(cc3C)NC(=O)CO4)CC2)c1,-4,-4,-1,4,3.9%,6%,-3.5
CCN(C(=O)COC(=O)c1cncc(Br)c1)C1CCS(=O)(=O)C1 (stereo not given),5,-1,1,80*,-0.8%,2%,4.0
CC(=O)OC1C=CN(C(C)=O)C(SC(C)(C)C)C1(C)O (stereo not given),-12,-13,4,·,-0.9%,·,-7.2
O=C(CN1CCN(Cc2ccccc2)CC1)NC(=O)NCc1ccco1,-2,-27,-2,-8,-1.0%,-11%,-3.5
CC(=O)c1cccc(OC(=O)Oc2cccc(C(C)=O)c2)c1,5,0,0,·,-0.5%,·,-0.1
O=C(CSc1ncccn1)N1CCN(Cc2ccccc2)CC1,3,-7,2,7,6.4%[38.3 µM],-5%,-1.6
CN1CCN(C=NC2=NN(c3cccc(C(F)(F)F)c3)CC2)CC1,?,-20,-28,-9,-1.2%,-9%,-3.7
COC(=O)c1ccccc1NC(=O)CSc1nnc(C(CO)NC(=O)c2ccccc2Cl)n1C (stereo not given),-5,1,-6,9,-3.8%[38.3 µM],23%,1.6
O=C(O)C1CCN(C(=O)CSc2nc3ccccc3c(=O)n2-c2ccc(Cl)cc2)CC1,6,3,8,-21,0.8%,6%,-2.0
FC(F)(F)c1ccc(CSc2nccn2-c2ccccc2)cc1,-23,-16,-24,17,8.2%,9%,-2.0
S=C(NCCc1ccccc1)N1CCn2cccc2C1c1ccncc1 (stereo not given),1,-15,-5,7,-0.6%,16%,1.9
CC(Oc1ccc(Cl)cc1)C(=O)Nc1ccccc1C(=O)N1CCOCC1 (stereo not given),3,14,0,5,4.2%,13%,1.8
CCCCn1c(=N)n(CC(O)c2ccccc2)c2ccccc21 (stereo not given),-15,-5,12,-48,-2.2%,?,-4.4
CN=C(Nc1cccnc1)c1cccc(C(F)(F)F)c1,7,-4,-1,10,0.7%,3%,-2.0
O=C(OCC(=O)N(C1CCCCC1)C1CCCCC1)c1ccccc1O,5,-8,6,-1,2.2%,-4%,-1.3
Cc1nc2ccccn2c1C(=O)N/N=C/c1ccc(CNC(=O)C(=O)Nc2ccccc2)o1,-8,-7,1,-7,16%,5%,1.7
CCC1(c2ccc(F)cc2)NC(=O)N(CC(=O)Nc2ccc3c(c2)OCCO3)C1=O (stereo not given),4,-2,-2,·,1.2%,·,-0.7
N=c1n(CC(=O)c2ccc([N+](=O)[O-])cc2)c2ccccc2n1Cc1ccccc1,-1,16,-6,3,?,?,3.0

# Continuation:
SMILES,CtBP-E1A blk,D2 potentiator,Six1-Eya2 blk,TRPV1 potentiator,PINK1 expr mod,Sfp PPTase inh,D2 agonist
CCc1cc(=O)oc2cc3oc(C)c(C)c3cc12,10,6,2,-6,-3.6%,0%,1.1
COCCSc1nnc(NC(=O)CCS(=O)(=O)Cc2ccccc2)s1,4,-7,-1,0,0.6%,-2%,-1.3
CN(CCCn1ccc(NC(=O)OCc2ccccc2)nc1=O)Cc1ccco1,-9,·,-4,·,-1.4%,·,-2.3
CCOc1ccccc1C(=O)NCCCCNC(=O)c1ccccc1OCC,-2,-3,18,·,1.2%,·,1.4
Cc1ccc(Cl)cc1NC(=O)Nn1cnnc1,2,-30,0,12,-1.6%,11%,-5.4
COC(=O)c1nc[nH]c1[N+](=O)[O-],6,-4,8,·,3.8%,·,-0.2
COc1ccc(C(CNS(=O)(=O)c2cccc(F)c2)N2CCCC2)cc1 (stereo not given),1,-15,-3,·,-1.7%,·,-9.2
C=CCn1c(=O)c(C(=O)Nc2ccccc2C)c(O)c2ccccc21,-11,-6,23,-1,0.5%,?,-2.9
Clc1ccc(CON/C=N/c2ncnc3sccc23)c(Cl)c1,7,2,16,-1,5.4%,8%,-3.5
Cc1ccc(CNC(=O)CSc2nc(=O)n3ccccc3n2)cc1,-1,-6,-1,18,-2.2%,·,-2.3
O=C(Nc1ccc(Cl)c(Cl)c1)N(CCCN1CCOCC1)Cc1cccnc1,-1,-8,3,12,-0.3%,28%,3.5
CC1(C)OC(=O)C2=C(C[C@@H](C3CCCCC3)O[C@@H]2c2ccc(Cl)cc2)O1,-3,·,-3,·,?,·,·
Cc1ccc(NC(=O)c2ccc(F)cc2)nc1,·,-2,0,-4,4.8%,17%,-3.2
COCCNc1cc(C)nc2c3c(C)cc(C)nc3nn12,-10,4,-8,-14,0.4%,-18%,-3.7
Cc1ccc(-c2c[n+](CC(=O)c3cccs3)c3n2CCC3)cc1,-3,-5,5,24,-1.0%,-30%,0.7
NC(=O)NN=C(C1CC1)C1CC1,5,-3,6,·,1.0%,·,0.5
COCCNC(=O)C(c1ccc(F)cc1)N(C(=O)CCC(=O)Nc1ccccn1)c1ccc(C)cc1 (stereo not given),1,-8,-1,3,-1.5%,30%,-5.1

# One compound at a time, as listed above. Order of values: CtBP-E1A blk	D2 potentiator	Six1-Eya2 blk	TRPV1 potentiator	PINK1 expr mod	Sfp PPTase inh	D2 agonist
# C=CCn1c(=O)c(C(=O)Nc2ccccc2C)c(O)c2ccccc21 is listed with -11	-6	23	-1	0.5%	?	-2.9
# Cc1ccc(Cl)cc1NC(=O)Nn1cnnc1 is listed with 2	-30	0	12	-1.6%	11%	-5.4
# O=C(Nc1ccc(Cl)c(Cl)c1)N(CCCN1CCOCC1)Cc1cccnc1 is listed with -1	-8	3	12	-0.3%	28%	3.5
# CCc1cc(=O)oc2cc3oc(C)c(C)c3cc12 is listed with 10	6	2	-6	-3.6%	0%	1.1
# NC(=O)NN=C(C1CC1)C1CC1 is listed with 5	-3	6	·	1.0%	·	0.5
